RE007 growth inh – qHTS Assay for Inhibitors of the HIV-1 protein Vpr. S. pombe RE007 Vpr strain, BacTiter-Glo ATP luminescence, 24 h; control for the full effect not named in the record. Potency, µM (doses to about 92.2 µM), for inactives: top-dose activity change, negative = less growth. 360,000 compounds, 0.21% hits; active = well fitted falling curve with a large enough effect; inconclusive = small, poorly fitted or top-dose-only effect; inactive = no such curve, though single readings can be large or run the other way;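 note: % is set by controls: 0 for no effect and ±100 for the full control effect; nearly all actives have a fitted effect of over 50% in size; the assay follows cell death caused by Vpr and the record does not say whether a fall means rescue or toxicity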
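Fission yeast RE007 carrying one integrated HIV-1 vpr copy, seeded at OD 0.01 in PMG+AL medium with 23 nL pinned compound. Grown 24 h at 30 degrees; viability read by BacTiter-Glo luminescence after 5 min.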
NS1 inh – qHTS Assay for Inhibitors of Influenza NS1 Protein Function; Potency, µM (top dose mostly 46.1 µM), without a hit: top-dose activity, positive = more growth; S. cerevisiae slowed by influenza A NS1, growth recovery by OD600; 270,000 compounds, 0.4% hits; active means well fitted rising curve with a large enough effect; inconclusive means small, poorly fitted or top-dose-only effect; inactive means no such curve, though single readings can be large or run the other way; note: nearly all actives have a fitted effect of over 50% in size
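In this qHTS, NS1 from influenza A is expressed in budding yeast, where it slows growth. Cells are switched from glucose to 2% galactose medium (pH 6.0, -URA), treated with compound, and growth recovery is read at OD600.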
MARV entry inh – qHTS for inhibitors of binding or entry into cells for Marburg Virus | Marburg virus pseudotyped entry inhibition, cell reporter; control for the full effect not named in the record; about a third of the inactives were read at about 46 µM | Potency, µM (titrated, usually from 37.8 µM), for inactives: at the highest dose activity change, negative = inhibition, actives largely listed as inhibitors | 300,000 compounds, 1.8% hits; active = well fitted inhibition curve with a large enough effect; inconclusive = small, poorly fitted or top-dose-only effect, or effect the other way; inactive = flat fitted curve, though single readings scatter; tested in HEK293 cells; about a fifth of its hits are not listed in these tables; note: % is set by controls: 0 for no effect and ±100 for the full control effect; luciferase read-out
2A StopGo – High Throughput Screening for Foot and Mouth Disease Virus Antivirals | human cells with a luciferase reporter of 2A StopGo recoding; control for the full effect not named in the record | Potency, µM (doses to about 57.9 µM), inactives show at the top dose signal change, negative = less light | 410,000 compounds, 1.2% hits | AID 1159524, 2015; active = well fitted falling curve with a large enough effect; inconclusive = small, poorly fitted or top-dose-only effect; inactive = no such curve, though single readings can be large or run the other way; tested in HEK293T cells; note: % is set by controls: 0 for no effect and ±100 for the full control effect; nearly all actives have a fitted effect of over 45% in size; luciferase light after 4 h
Lassa entry inh – qHTS for Inhibitors of binding or entry into cells for Lassa Virus; Potency, µM (top dose mostly 37.9 µM), for inactives: at the top dose activity change, negative = inhibition, hits mostly inhibitors; Lassa virus pseudotype entry inhibition, cell reporter; control for the full effect not named in the record; 300,000 compounds, 1.2% hits; AID 540256, 2011; active means well fitted inhibition curve with a large enough effect; inconclusive means small, poorly fitted or top-dose-only effect, or effect the other way; inactive means flat fitted curve, though single readings scatter; tested in HEK293 cells; note: % is set by controls: 0 for no effect and ±100 for the full control effect; nearly all actives have a fitted effect of over 50% in size; luciferase read-out
Cruzain noTriton – qHTS Assay for Promiscuous and Specific Inhibitors of Cruzain (without detergent) | purified cruzain, Z-FR-AMC fluorescence, no detergent | 200,000 compounds, 2.3% hits | AID 1476, 2009 | Potency, µM, for inactives: max response, negative = inhibition, actives largely listed as inhibitors | Cruzipain (Trypanosoma cruzi), P25779;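 note: plate controls were enzyme without inhibitor for no effect and buffer without enzyme for full effect; nearly all actives have a fitted effect of over 40% in size; top concentration of the series not given in the record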
Target sequence (P25779 123-467 limits assumed): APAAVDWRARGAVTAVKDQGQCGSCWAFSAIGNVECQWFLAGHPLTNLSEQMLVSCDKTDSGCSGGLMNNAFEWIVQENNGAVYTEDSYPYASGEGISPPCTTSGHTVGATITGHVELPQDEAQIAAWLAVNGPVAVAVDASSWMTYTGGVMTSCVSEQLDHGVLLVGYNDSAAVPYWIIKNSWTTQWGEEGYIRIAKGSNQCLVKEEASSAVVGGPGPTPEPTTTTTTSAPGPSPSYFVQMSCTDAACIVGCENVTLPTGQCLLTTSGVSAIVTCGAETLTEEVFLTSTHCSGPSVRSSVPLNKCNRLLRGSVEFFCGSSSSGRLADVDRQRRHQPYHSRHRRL
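Purified cruzain at 1.5 nM, pre-incubated 15 min with compound at room temperature in 100 mM sodium acetate pH 5.5, 5 mM DTT, 0.00005% Triton X-100. Reaction started with 2 uM Z-FR-AMC; AMC fluorescence increase over 60 s gives rate.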
SARS PLP yeast – qHTS of Yeast-based Assay for SARS-CoV PLP. S. cerevisiae expressing SARS-CoV PLpro, growth rescue; control for the full effect not named in the record. Potency, µM (top dose mostly 32.9 µM), inactives show at the top dose activity, positive = growth rescue. AID 485353, 2010. 330,000 compounds, 0.19% hits; active means well fitted rising curve with a large enough effect; inconclusive means small, poorly fitted or top-dose-only effect; inactive means no such curve, though single readings can be large or run the other way; note: 0% is about no effect; nearly all actives have a fitted effect of over 55% in size; growth read by luminescence after 48 h
Cruzain inh Det – qHTS Assay for Promiscuous and Specific Inhibitors of Cruzain (with detergent); purified cruzain, Z-FR-AMC fluorescence, 0.01% Triton; Potency, µM, without a hit: max response, negative = inhibition, hits mostly inhibitors; 200,000 compounds, 0.43% hits;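 note: plate controls were neutral wells for no effect and buffer without enzyme for full effect; nearly all actives have a fitted effect of over 40% in size; top concentration of the series not given in the record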
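Enzyme 1.5 nM, Z-FR-AMC 2 uM, NaOAc 100 mM pH 5.5, DTT 5 mM, Triton X-100 0.01%; 15 min RT compound preincubation; kinetic ex360/em450, 60 s delta.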
Starred values were filed as active, the others as inactive; ? = inconclusive; / = not tested or not shown; & = joins results of further samples; [ ] = dose if it differs, or a comment. Unless noted, calls come from the whole dose curve; as a rule, active = well fitted curve in the direction sought with a large enough effect; inconclusive = small, poorly fitted or top-dose-only effect, or another doubt; inactive = no such curve, though single readings can be large; an effect the other way counts as inactive or inconclusive. Potency is the fitted concentration of half-maximal effect.

smiles | RE007 growth inh | NS1 inh | MARV entry inh | 2A StopGo | Lassa entry inh | Cruzain noTriton | SARS PLP yeast | Cruzain inh Det
O=C(CCCn1c(=O)[nH]c2cc(Cl)ccc2c1=O)NCC1CCCO1 (stereo not drawn) | 2% | 6% | -9%[46.1 µM] | -18% | -2% | -1% | -2% | -1.3%
COc1ccc(OCC(=O)N/N=c2\oc3c(OC)cccc3cc2C(N)=O)cc1 | -1% | -10% | 8% | -4% | 0% | ? | -4% | -1.7%
Cc1ccc(NC(=O)c2cc(N3C(=O)CCC3=O)ccc2N2CCOCC2)cc1 | -8% | 2% | -20%[46.1 µM] | 13% | 8% | / | 0% | /
CNC(=O)c1cc(C(=O)c2ccc(Cl)cc2)c(Br)[nH]1 | -6% | 4% | / | -3% | / | / | -3% | /
CCC(C(=O)NCCc1ccc(OC)c(OC)c1OC)n1nc(C)c2sc3ccccc3c2c1=O (stereo not drawn) | / | / | ? | -8% | 14%[46.1 µM] | -5% | / | 0.0%
O=C(O)C1OCC2(CO1)COC(C(=O)O)OC2 (stereo not drawn) | -12% | / | -5% | 1% | 16% | / | / | /
Cc1cc(C)c2c(=O)[nH]c(SCC(=O)Nc3ccccc3)nc2n1 | 22% | 7% | -15%[46.1 µM] | 6% | 3% | 6% | -2% | -0.5%
CCOC(=O)c1ccc(NC(=O)Nc2ccc(F)cc2)cc1 | 2% | -95% | 23% | 21% | ? | -4% | ? | -2.5%
CCC(=O)Nc1cccc(NC(=S)NC(=O)c2cccc(C)c2)c1 | -5% | -12% | ? | 0% | ? | -16% | -25% | -9.6%
CC1CCCC(C)N1/N=C/c1ccccc1Br (stereo not drawn) | 3% | 3% | ? | 12% | ? | / | -2% | /
CC(C)CCC1=NN(C(=O)c2ccco2)C(O)(C(F)(F)F)C1 (stereo not drawn) | 3% | 1% | ? | -21% | -26%[46.1 µM] | / | -1% | /
NC(=O)c1cnccc1C=Cc1ccccc1 | -15% | / | -18% | 5% | -1% | / | / | /
CC(=O)Nc1ccc(S(=O)(=O)N2CCC(C(=O)NCc3ccncc3)CC2)cc1 | 4% | -2% | 3%[46.1 µM] | -4% | 5%[46.1 µM] | / | ? | /
Cc1ccc(C(=O)N/C(=C\c2ccc([N+](=O)[O-])cc2)C(=O)NCCc2ccccc2)cc1 | 4% | 5% | -9% | 60%[activator] | 4% | ? | -2% | 0.1%
CCN(CC(=O)Nc1c(F)cccc1F)C(=O)c1ccc2c(c1)S(=O)(=O)N=C1CCCCCN12 | 6% | / | 26% | -4% | ? | / | -10% | /
O=C(NCCN1CCOCC1)c1ccc(NC(=O)C2COc3ccccc3O2)cc1 (stereo not drawn) | -19% | / | 7%[46.1 µM] | 5% | 10%[46.1 µM] | / | -1% | /
CCCCn1c(N)c(N(CCOC)C(=O)CSc2nnc(-c3ccncc3)n2CCC)c(=O)[nH]c1=O | -13% | / | 6%[46.1 µM] | -20% | 5% | / | -3% | /
Cc1ccc(C(=O)N/C(=C\c2cccnc2)c2nc3ccccc3[nH]2)cc1 | -1% | -15% | 3% | 13% | -3% | 7% | 7% | -2.1%
Cc1ccc(NC(=O)c2cc(S(=O)(=O)N3CCOCC3)ccc2F)c(C)c1 | 10% | -9% | -5% | 0% | -1% | 11% | 2% | 0.2%
CC(C)(C)OC(=O)N1CCC(c2c(C(=O)N3CCCCC3)cnn2-c2ccc(F)cc2)CC1 | / | / | / | -12% | -11%[46.1 µM] | -6% | / | -1.6%
Cc1onc(-c2c(F)cccc2Cl)c1C(=O)NCCc1ccncc1 | -9% | 7% | ? | -15% | 12% | / | 3% | /
CN(c1ccc(C(=O)Nc2ccc3c(c2)n(C)c(=O)n3C)cc1)S(C)(=O)=O | 12% | 3% | 27% | 18% | 1% | / | 11% | /
CC(C)[C@H](NC(N)=O)C(=O)NNC(=O)COc1cccc(C(F)(F)F)c1 | 8% | 3% | / | -14% | / | / | 2% | /
CCOC(=O)c1cnn2c(N)c(C#N)nnc12 | 2% | 5µM* | 17% | 26% | 3% | 4% | 1% | 1.6%
CCOC(=O)c1[nH]c(=O)c2ccccc2c1O | -7% | -9% | 20% | 11% | 24% | -24% | -14% | -5.3%

The final three compounds of the section above come first, to join the parts.
smiles | RE007 growth inh | NS1 inh | MARV entry inh | 2A StopGo | Lassa entry inh | Cruzain noTriton | SARS PLP yeast | Cruzain inh Det
CC(C)[C@H](NC(N)=O)C(=O)NNC(=O)COc1cccc(C(F)(F)F)c1 | 8% | 3% | / | -14% | / | / | 2% | /
CCOC(=O)c1cnn2c(N)c(C#N)nnc12 | 2% | 5µM* | 17% | 26% | 3% | 4% | 1% | 1.6%
CCOC(=O)c1[nH]c(=O)c2ccccc2c1O | -7% | -9% | 20% | 11% | 24% | -24% | -14% | -5.3%
Cc1cc(Cl)nc(-n2nc(C)cc2C)n1 | -18% | 1% | -3% | 2% | 12% | / | 7% | /
CN1/C(=C\C=Nc2ccccc2)C(C)(C)c2ccccc21 | -8% | -32% | ? | ? | ? | -1% | 0% | -4.0%
Cc1ccc(CSc2nnc(CC(=O)Nc3ccc(C)cc3)n2C)cc1 | 6% | -8% | 18% | 4% | -16% | 6% | 8% | 1.9%
COc1ccc(C(=O)N/N=C2\CCS(=O)(=O)c3ccc(F)cc32)cc1OC | -2% | -52% | 2% | -9% | / | / | -1% | /
Fc1ccc(C2c3[nH]c4ccccc4c3CCN2Cc2ccoc2)cc1 (stereo not drawn) | 24% | -5% | ? | -13% | -17%[46.1 µM] | / | -1% | /
Cc1ccccc1CN1CCN(c2ccc(S(=O)(=O)N3CCCC3)cn2)CC1 | 12% | / | ? | ? | ? | / | 1% | /
COC(=O)CCCn1c(C)cc(C(=O)CCl)c1C | 26% | / | ? | 28µM* | ? | / | 11µM* | /
Cc1cc(N2CCN(c3ccccc3F)CC2)nc2cc(O)ccc12 | -1% | -11% | ? | 8% | 16% | -5% | 2% | -10%
COc1ccc(OCC(=O)N2CCc3c([nH]c4ccccc34)C2c2ccccn2)cc1 (stereo not drawn) | 7% | 11% | / | -8% | / | / | -2% | /
C[N+]1(C)CCC(OC(=O)C(c2ccccc2)c2ccccc2)CC1 | 9%[18.4 µM] | ? | ? | -6%&-6%&-5% | ? | -6%&0% | / | 6.1%&3.7%
CCOC(=O)C(=O)Cc1nc(OCc2ccccc2)cc(OCc2ccccc2)n1 | -9% | / | ? | -12% | -20%[46.1 µM] | / | / | /
Cc1cc(NC(=O)CSc2nc3c([nH]c4ccccc43)c(=O)n2-c2cccc(Cl)c2)no1 | / | / | / | -24% | ? | -3% | / | -1.1%
O=C(COc1coc(CN2CCc3ccccc32)cc1=O)Nc1cccc(F)c1 | -7% | / | -9% | -4% | -7% | / | -1% | /
Cc1ccc(S(=O)(=O)c2cn(C)c3cc(N4CCOCC4)c(F)cc3c2=O)cc1 | -13% | 11% | -7%[46.1 µM] | -9% | 4%[46.1 µM] | / | -5% | /
O=C(CSc1nncs1)NC(=O)Nc1ccc2c(c1)OCCO2 | 4% | 6% | / | 56%[activator] | / | / | 0% | /
COCCCn1c(=O)/c(=C/c2ccccc2OC(F)F)s/c1=C(\C#N)C(=O)NCCOC | -18% | / | 2%[46.1 µM] | -5% | -14%[46.1 µM] | / | / | /
CCOc1ccc(N(CC(=O)Nc2ccc(OC)cc2)C2=NC3CS(=O)(=O)CC3S2)cc1 (stereo not drawn) | -7% | 7% | / | ? | / | / | -1% | /
C=CCC(NCc1ccccc1)c1ccc(Cl)cc1 (stereo not drawn) | / | -9% | ? | -7% | 12% | -2% | 15% | 0.0%
CCOC(=O)c1cccc(Nc2ccc3cc(S(=O)(=O)N4CCCCC4)ccc3n2)c1 | / | / | / | 0% | ? | 25µM* | / | -3.9%
Cc1ccc(C(=O)CN2/C(=C(\O)c3ccccc3)C(=O)c3ccccc3S2(=O)=O)c(C)c1 | 5% | -23% | ? | -8% | 18µM* | 25µM* | -22% | 0.0%
Cn1c(=O)c2c(nc(SCCCC#N)n2Cc2c(F)cccc2Cl)n(C)c1=O | -6% | -22% | -1% | -29% | / | 0% | -3% | -7.5%
CNc1ccccc1C(=O)OCC(=O)Nc1ccc2c(c1)OCO2 | -1% | / | 17% | 66%[activator] | 0%[46.1 µM] | / | -3% | /
Cc1ccc(-c2noc(-c3ccc(N4CCOCC4)c([N+](=O)[O-])c3)n2)cc1 | / | / | 16%[46.1 µM] | -22% | 28%[46.1 µM] | 1% | / | -10%

Among those listed so far, these have bromine:
smiles | RE007 growth inh | NS1 inh | MARV entry inh | 2A StopGo | Lassa entry inh | Cruzain noTriton | SARS PLP yeast | Cruzain inh Det
CNC(=O)c1cc(C(=O)c2ccc(Cl)cc2)c(Br)[nH]1 | -6% | 4% | / | -3% | / | / | -3% | /
CC1CCCC(C)N1/N=C/c1ccccc1Br (stereo not drawn) | 3% | 3% | ? | 12% | ? | / | -2% | /

As entered above.
MARV entry inh result of COCCCn1c(=O)/c(=C/c2ccccc2OC(F)F)s/c1=C(\C#N)C(=O)NCCOC stands at 2%[46.1 µM]
Lassa entry inh result of O=C(COc1coc(CN2CCc3ccccc32)cc1=O)Nc1cccc(F)c1 stands at -7%
2A StopGo result of Cn1c(=O)c2c(nc(SCCCC#N)n2Cc2c(F)cccc2Cl)n(C)c1=O stands at -29%
SARS PLP yeast result of O=C(CSc1nncs1)NC(=O)Nc1ccc2c(c1)OCCO2 stands at 0%

High-throughput results from PubChem.
